ClpP mod: qHTS Assay for Activators of ClpP; ATP-dependent Clp protease proteolytic subunit (Bacillus subtilis (strain 168)), P80244; purified B. subtilis ClpP, FRET peptide cleavage, 20 min; Potency, µM (titrated, usually from 57.5 µM), inactives show at the highest dose activity change, negative = active; 1.9% of 340,000 active; AID 651965, 2013; active = well fitted falling curve with a large enough effect; inconclusive = small, poorly fitted or top-dose-only effect; inactive = no such curve, though single readings can be large or run the other way; further: potency means the concentration at half of the fitted maximal effect; the source files actives as falling curves though it sought activators and does not explain the sign; nearly all actives have a fitted effect of over 65% in size; many hits overshoot -100%
Target sequence (P80244 whole entry, looked up): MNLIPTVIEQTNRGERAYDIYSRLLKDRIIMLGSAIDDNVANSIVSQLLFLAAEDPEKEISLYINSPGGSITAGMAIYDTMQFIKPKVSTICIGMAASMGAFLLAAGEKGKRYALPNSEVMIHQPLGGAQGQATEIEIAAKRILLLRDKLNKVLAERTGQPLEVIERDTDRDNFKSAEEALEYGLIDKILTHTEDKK
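FRET quenching reversal measured ClpP activation: 10 microg/mL B. subtilis ClpP at pH 8 with the FRET-FV decapeptide, read at 430 nm after 320 nm excitation. The 20-min minus 0-min signal was scaled between DMSO/no-enzyme wells and ADEP (5.8 microM final).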
gsp agonist: qHTS for Agonist of gsp, the Etiologic Mutation Responsible for Fibrous Dysplasia/McCune-Albright Syndrome: qHTS. gsp mutant cells, cAMP HTRF, 30 min; control for the full effect not named in the record. Potency, µM (doses to about 76.9 µM), for inactives: at the top dose activation (cAMP increase), most hits filed as activators. 0.13% of 340,000 active. AID 624287, 2012; active = well fitted activation curve with a large enough effect; inconclusive = small, poorly fitted or top-dose-only effect, or another doubt; inactive = no such curve, though single readings can be large or run the other way; cell line not stated here;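 further: phosphodiesterase inhibitor Ro 20-1724 added with compounds to block cAMP breakdown; potency means the concentration at half of the fitted maximal effect; nearly all actives have a fitted effect of over 60% in size; about a fifth of the inactives were tested at one dose only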
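Cells stably selected in G418 were plated at 2000/well, grown 16-24 hr, then given compounds in DMSO with the PDE inhibitor […] (300 uM solution added) for 30 min at 37C; cAMP was read by HTRF.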
Sfp inh: qHTS Assay for Inhibitors of Bacillus subtilis Sfp phosphopantetheinyl transferase (PPTase); Potency, µM, without a hit: max response, negative = inhibition, most hits filed as inhibitors; Biochemical Sfp PPTase activity, qHTS; 3.5% of 310,000 active; 4'-phosphopantetheinyl transferase ffp (Bacillus subtilis), Q9F4F7; active means well fitted inhibition curve with a large enough effect; inconclusive means small, poorly fitted or top-dose-only effect, or another doubt; inactive means no such curve, though single readings can be large or run the other way;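 further: the enzyme is Sfp with the accession as filed and its product quenches rhodamine fluorescence; potency means the concentration at half of the fitted maximal effect; 0% = enzyme reaction without inhibitor and -100% = no enzyme wells; top concentration of the series not given in the record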
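After 15 min at room temperature with compound, 15 nM Sfp received 5 uM rhodamine-CoA plus 12.5 uM BHQ-2-ybbR (50 mM Hepes pH 7.6, 10 mM MgCl2). Rate came from the fluorescence difference over 30 min, ex 525/em 598 nm.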
D2 ag: Beta-Arrestin HTS for Positive Allosteric Modulators of the Human D2 Dopamine Receptor: Agonists. D(2) dopamine receptor (Homo sapiens), P14416. DiscoveRx PathHunter D2 beta-arrestin, luminescence, 90 min; 100% = 57 uM dopamine signal. activation, % (test concentration not listed). 0.084% of 360,000 active; in the data active = activation above about 40%; inconclusive = about 15% to 40%; inactive = below about 15%; further: compound concentration not given in the record; the text of the record calls up to 30% inactive
Target sequence (P14416 whole entry, looked up): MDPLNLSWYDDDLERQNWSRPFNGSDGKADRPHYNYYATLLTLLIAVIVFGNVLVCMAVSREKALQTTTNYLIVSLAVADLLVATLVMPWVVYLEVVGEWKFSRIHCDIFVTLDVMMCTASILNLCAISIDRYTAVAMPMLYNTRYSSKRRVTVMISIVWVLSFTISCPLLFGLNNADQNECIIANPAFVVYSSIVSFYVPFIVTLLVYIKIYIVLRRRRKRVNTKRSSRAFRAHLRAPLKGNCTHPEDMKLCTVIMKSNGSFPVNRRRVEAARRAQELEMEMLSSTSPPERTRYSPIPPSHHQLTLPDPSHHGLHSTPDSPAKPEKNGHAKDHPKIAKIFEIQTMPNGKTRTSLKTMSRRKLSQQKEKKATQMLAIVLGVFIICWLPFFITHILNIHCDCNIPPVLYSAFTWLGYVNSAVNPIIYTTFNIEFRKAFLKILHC
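DiscoveRx PathHunter D2 beta-arrestin cells (2,100/well) attached overnight, then compound-stimulated 90 min at 37 C in HBSS/10 mM HEPES/0.1% Tween-20 buffer; beta-galactosidase complementation read by luminescence after 1 h at ambient temperature. Dopamine 57 uM final (EC100) as control.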
PINK1 expr mod: A Quantitative High throughput Screen to Identify Chemical Modulators of PINK1 Expression. Potency, µM (series often up to 76.6 µM), inactives show at the highest dose activation (PINK1 increase), most hits filed as activators. PINK1 immunofluorescence, high-content cytometry, 24 h. 0.2% of 410,000 active; active = well fitted activation curve with a large enough effect; inconclusive = small, poorly fitted or top-dose-only effect; inactive = flat fitted curve, though single readings scatter; cell line not stated here;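 further: potency means the concentration at half of the fitted maximal effect; % of control where 0% means no effect; nearly all actives have a fitted effect of over 65% in size; a mitochondrial uncoupler was the plate control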
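PINK1 protein, normally rapidly degraded, was detected by immunofluorescence after 24 hour compound treatment of a stable cell line. Titration data (5 concentrations) came from laser-scanning cytometry, with CCCP-treated wells as controls.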
Menin MLL FP FL: qHTS Assay for Inhibitors Targeting the Menin-MLL Interaction in MLL Related Leukemias: Competition With Fluorescein Labeled MLL-derived Peptide; AID 1766, 2009; 290,000 tested, under 10 active; Fluorescence polarization, fluorescein-MLL peptide displacement from menin; FP activity change, % at 61.4 µM; inconclusive = falling polarisation curve, or a change in total fluorescence; inactive = total fluorescence flat and polarisation flat or rising; no compound was filed as active; the % refers to the polarisation; negative = inhibition;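 further: % of control where 0% means no effect; inhibitors lower the polarisation; unlabelled MLL peptide was the positive control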
gsp antag: qHTS for Antagonists of gsp, the Etiologic Mutation Responsible for Fibrous Dysplasia/McCune-Albright Syndrome: qHTS; gsp-mutant cells, cAMP HTRF, 30 min; control for the full effect not named in the record; Potency, µM (top dose mostly 76.9 µM), for inactives: at the top dose activity change, negative = inhibition, usual class: inhibitors; 0.4% of 340,000 active; active = falling curve of any shape with a large fitted effect; inconclusive = falling curve, mostly with a smaller effect; inactive = flat or rising curve; cell line not stated here;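 further: intracellular cAMP measured with PDE inhibitor Ro 20-1724 present during compound exposure; potency means the concentration at half of the fitted maximal effect; on the % scale 0 is the no-effect control and ±100 the full control effect; nearly all actives have a fitted effect of over 65% in size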
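Measurement of cellular cAMP by homogeneous time-resolved fluorescence following a 30 min compound exposure at 37C. The PDE inhibitor […] was present throughout; the assay buffer was DPBS with 0.05% BSA and 0.005% Tween 20.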
Numbers without * were called inactive; u = inconclusive; x = no result given; & = joins results of further samples; [ ] = remark or other dose.

No.	Molecule	ClpP mod	gsp agonist	Sfp inh	D2 ag	PINK1 expr mod	Menin MLL FP FL	gsp antag
1	O=C(NC1CCN(Cc2ccccc2)CC1)c1[nH]c(C(F)(F)F)nc1-c1ccccc1	-1.0%&-4.3%	x	x	u	-0.1%&0.5%	x	x
2	O=C1CC2(CCCCC2)Oc2ccc(F)cc21	-18%	39%	x	-0.7	6.7%	x	3%
3	C=CCN(CC(=O)NC1CCCC1)C(=O)C(=O)Nc1ccc2c(c1)OCCO2	x	-2%[15.4 µM]	0%	-2.9	-1.9%	-6.9	6%
4	CC(=O)c1ccccc1NC(=O)COC(=O)C1COc2ccccc2O1 (stereo unspecified)	4.5%	27%	x	-4.1	-0.6%	x	x
5	COc1ccc(CNC(=O)c2cccc(S(=O)(=O)N3CCN(c4ccc(F)cc4)CC3)c2)cc1	-1.0%	3%[15.4 µM]	x	8.4	-0.8%	x	-2%
6	COc1ccccc1OCc1cc(C(=O)N2CC3C[C@@H]4CC2C[C@H](C3)C4)no1	-1.3%	4%	-2%	-1.8	-0.4%	x	-6%
7	Cc1ccc(OCc2cc(C(=O)Nc3ccccc3)oc2C)cc1	0.3%	-32%[inhibitor]	-9%	-1.5	1.6%	u	-12%
8	Cc1nc(N)nc(N/N=C/c2c(F)cccc2Cl)n1	1.3%	-3%[15.4 µM]	-6%	-3.1	0.1%	3.1	-23%
9	CN1C(=O)N(C)C2(CC1(C)C)CC(C)(C)N(C)C(=O)N2C	-0.5%	12%	20%	-1.6	-2.5%	2.1	11%
10	COc1cc(CC(=O)N(C)CC(=O)Nc2cc(C)ccc2C)cc(OC)c1OC	0.4%	1%[15.4 µM]	17%	-9.0	2.3%	-0.3	17%
11	O=C(Cc1ccc2c(c1)OCCO2)N1CCN(S(=O)(=O)c2cccc(Cl)c2Cl)CC1	-0.5%	8%	-3%	0.3	-0.2%	x	-1%
12	COc1ccccc1OCC(=O)Nc1c2c(nn1-c1ccc(C)cc1)CS(=O)(=O)C2	-0.1%	10%[15.4 µM]	x	-11	0.7%	x	2%
13	COc1ccccc1NC(=O)O/N=C(\N)c1ccccc1	-2.5%	u	u	13	1.5%	5.1	5%
14	COc1ccccc1NC(=O)c1ccccc1NC(=O)c1cc(Cl)ccc1NC(=O)c1ccco1	270%	-33%[inhibitor]	16µM*	-2.2	11%[38.3 µM]	3.3	-1%
15	COc1ccc(C(=O)NC(=S)N2CCC(C)CC2)cc1Br	1.8%	6%	10%	-7.6	2.0%	x	-12%
16	COc1ccc(C(=O)c2ccccc2Cl)cc1	-0.6%	2%	13%	-4.3	1.5%	4.3	7%[15.4 µM]
17	CC(C)c1ncc(S(=O)(=O)c2ccc(C(F)(F)F)cn2)c(N)n1	-2.1%	-39%[inhibitor]	5%	-4.6	2.6%	8.7	8%
18	N=c1n(CCN2CCCCC2)c2ccccc2n1CC(O)COc1ccccc1 (stereo unspecified)	1.2%&-3.2%	9%	17%	-5.1	-1.0%&-0.3%	-0.8	7%
19	O=C(NNC1CC(=O)N(c2ccccc2)C1=O)c1cccnc1 (stereo unspecified)	x	-7%[15.4 µM]	16%	-23	1.4%	0.1	5%
20	COc1ccc(/C=C2\N=C(SC)N(C)C2=O)cc1	1.2%	-35%	3%	-4.2	-0.1%	-0.3	-3%
21	Cc1ccccc1CNS(=O)(=O)c1c(C(=O)N2CCCCC2)c(C)n(C)c1C	0.6%	u	11%	3.8	-0.5%	-9.1	-5%
22	CCCc1nc(N2CCN(C)CC2)c2sc(=S)n(-c3ccccc3)c2n1	2.5%	-65%[inhibitor]	13%	-4.9	1.2%	0.1	0%
23	c1ccc(NCc2nc(-c3ccccc3)no2)cc1	6.1%	4%	9%	-5.8	-0.7%	6.8	10%
24	Cn1ncc(Cl)c1C(=O)N1CCN(S(=O)(=O)c2ccc(F)cc2)CC1	0.0%	9%	7%	-2.8	-0.8%	x	-9%
25	Cc1nc(-c2ccccc2)ccc1C(=O)O	x	u	26%	0.2	0.7%	0.7	-7%
26	CCOC(=O)c1ccc(NC(=O)NCc2cccnc2)cc1	-5.0%	u	-1%	-0.7	1.2%	-7.5	2%
27	COCCNC(=O)C(=O)Nc1ccc(Br)cc1	0.7%	26%	9%	-0.6	6.3%[38.3 µM]	4.2	8%
28	COc1cccc(/C=C2\Oc3cc(OCC(=O)N4Cc5ccccc5C[C@H]4C(=O)O)ccc3C2=O)c1	-8.7%	x	2%	3.0	0.3%	-0.1	-21%
29	O=C(N/N=C/c1ccccn1)C(O)c1ccccc1 (stereo unspecified)	-3.6%	8%	u	-4.1	-0.1%	3.6	3%
30	CCN(C(=O)Cn1cc(C(F)(F)F)ccc1=O)C1CCS(=O)(=O)C1 (stereo unspecified)	-3.6%	-7%	x	-2.8	-1.3%	x	x
31	COc1ccc(CCNC(=O)CN2C(=O)c3ccccc3S2(=O)=O)cc1	0.8%	-24%	18%	-0.6	2.7%	5.9	-4%
32	O=C(CN1C(=O)NC2(CCCC2)C1=O)N1CCN(S(=O)(=O)c2ccc(Cl)cc2)CC1	2.3%	3%	10%	1.3	1.3%	0.8	-5%
33	CC(=O)C(=Cc1cn(-c2ccccc2)nc1-c1ccccc1)C(C)=O	-0.5%	-67%[inhibitor]	3%	-1.9	9.3%	-1.1	-3%
34	Cc1ccc(C)c(S(=O)(=O)N2CCN(C(=O)/C=C/c3ccco3)CC2)c1	-2.7%	-54%[inhibitor]	x	4.9	-0.9%	x	-10%
35	COc1ccc2nc(SC(C(=O)c3ccccc3)c3ccccc3)nc(C)c2c1 (stereo unspecified)	x	17%	4%	-3.0	-0.9%	6.6	-6%
36	COc1ccc([N+](=O)[O-])cc1NC(=O)c1ccccc1SC	28µM*	-7%[15.4 µM]	1%	-1.4	6.4%	-7.3	2%
37	Cc1nc2c(-c3ccccc3)c(C)nn2c(SCC(N)=O)c1Cc1ccccc1	2.3%	-1%	6%	-6.3	5.2%	0.4	-3%
38	COc1ccc(CCN2CC(C(=O)NCCc3ccccc3)CC2=O)cc1OC (stereo unspecified)	0.1%&1.4%	-13%	12%	-3.2	-0.1%&12%	0.7	9%
39	CC1CCN(CC(=O)Nc2ccc(Br)cc2[N+](=O)[O-])CC1	-3.4%	-42%	14%	-1.2	7.8%	1.4	7%
40	COc1cc(OC)cc(C(=O)N2CCN(S(C)(=O)=O)CC2)c1	0.2%	u	8%	-4.8	1.3%	-1.0	11%
41	COc1ccc(S(=O)(=O)Cc2ccc(C(=O)NCc3ccc(C)cc3)o2)cc1	x	-10%	19%	1.0	1.9%	2.4	-5%
42	CCOC(=O)N1CCN(c2nc(C)c3c(n2)CC(C)CC3=O)CC1 (stereo unspecified)	-1.8%	-67%[inhibitor]	0%	0.3	-2.2%	-3.3	-4%
43	O=C(Nc1ccccc1C(=O)Nc1ccccc1)c1ccccc1Br	0.4%	14%[15.4 µM]	x	-5.4	2.0%	x	-18%
44	CN(CCO)c1cc(Sc2nc3ccccc3s2)c2nonc2c1[N+](=O)[O-]	-3.8%	-3%	25µM*	-3.0	13%[38.3 µM]	3.9	-3%
45	COc1cccc(OCCNC(=O)c2cccc(OC)c2)c1	0.9%	5%	-3%	-0.7	1.0%	3.4	7%
46	Cc1ccccc1-n1nnnc1SC1CCOC1=O (stereo unspecified)	-1.0%	17%	11%	-0.5	-1.8%	4.4	16%
47	COc1ccc(NC(=O)CN2C(=O)COc3ccc(S(=O)(=O)N4CCCCC4)cc32)c(OC)c1	-1.7%	8%	25%	2.4	0.1%	-3.0	-11%
48	COc1ccc(NC(=O)CSc2nnc(C)c(=O)n2N)cc1	-2.3%	9%	5%	-1.7	2.9%	-1.3	6%
49	COc1ccc(C2=NN(C(=O)CSc3nc4ncc(Cl)cc4[nH]3)C(c3ccco3)C2)cc1 (stereo unspecified)	x	12%	-8%	1.0	0.9%	20	-18%
50	CCCCN1C(=O)C(CC(=O)NC2CCCCC2)CC(C(=O)N(C(C)C)C(C)C)=C1C (stereo unspecified)	-0.9%	u	x	0.5	3.5%	x	x

More structures
No.	Molecule	ClpP mod	gsp agonist	Sfp inh	D2 ag	PINK1 expr mod	Menin MLL FP FL	gsp antag
51	CN(CC(=O)Nc1ccccc1Br)C(=O)c1ccccc1OCc1ccc(F)cc1	-3.2%	27%	x	3.5	-2.0%	x	-5%
52	COCCNC(=O)c1ccc2c(c1)ncn2-c1ccc(F)c(F)c1	-3.9%	-25%	12%	-0.4	2.4%	2.4	-6%
53	COc1ccc(CN2CCC[C@]3(N[C@H](c4ccc(OC)cc4)[C@@H]4C(=O)N(Cc5ccccc5)C(=O)[C@@H]43)C2=O)cc1	-1.3%	-66%[inhibitor]	x	-2.0	-0.2%	x	x
54	O=C(Cn1cc2c(n1)CCCC2)NCc1cccnc1	-0.6%	0%	-11%	-0.2	2.2%	0.3	10%
55	COc1cccc(NC(=O)N2CCCc3ccccc32)c1	0.6%	u	9%	-2.4	0.3%	x	9%

Some of the entries above in a different format.
52. COCCNC(=O)c1ccc2c(c1)ncn2-c1ccc(F)c(F)c1
53. COc1ccc(CN2CCC[C@]3(N[C@H](c4ccc(OC)cc4)[C@@H]4C(=O)N(Cc5ccccc5)C(=O)[C@@H]43)C2=O)cc1
54. O=C(Cn1cc2c(n1)CCCC2)NCc1cccnc1
entry no. | 52 | 53 | 54
ClpP mod | -3.9% | -1.3% | -0.6%
gsp agonist | -25% | -66%[inhibitor] | 0%
Sfp inh | 12% | x | -11%
D2 ag | -0.4 | -2.0 | -0.2
PINK1 expr mod | 2.4% | -0.2% | 2.2%
Menin MLL FP FL | 2.4 | x | 0.3
gsp antag | -6% | x | 10%

Bioassay records as filed in PubChem BioAssay.
